Screening results deposited in PubChem by National Center for Advancing Translational Sciences (NCATS).
Prx2 Sm inh: Schistosoma mansoni Prx2 inhibition; Potency, µM; S. mansoni Prx2 activity coupled to TGR/GSH (TGR is thioredoxin glutathione reductase), NADPH fluorescence loss, qHTS; some inactives read as strong as hits; 65,000 tested, 0.07% active; active means full or partial inhibition curve with a strong effect at the top dose; inconclusive means weaker partial or single-point curve; inactive means no accepted curve; further: series up to 57 µM; many of its hits are not listed in these tables
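Prx2 inhibition was measured as reduced NADPH consumption when electrons flowed from NADPH through TGR and glutathione to Prx2 and H2O2. Plates were read kinetically over 8 min; enzyme reagents were held at 4 deg C during dispensing.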
LT uptake inh: anthrax lethal toxin internalization inhibition | Cells, anthrax lethal toxin internalization, FRET ratio (460/530) | Potency, µM (highest dose often 40 µM), without a hit: at the highest dose activity change, negative = inhibition, actives largely listed as inhibitors | 70,000 tested, 0.67% active | AID 912; active = well fitted falling ratio curve with the 530 nm signal flat; inconclusive = other ratio curves, or a change in one channel alone; inactive = flat curves in the ratio and both channels; the % refers to the ratio; further: on the % scale 0 is the no-effect control and ±100 the full control effect; nearly all actives have a fitted effect of over 50% in size; tested in ME-180 cells; beta-lactamase reporter
Starred values were filed as active, the others as inactive; ? = inconclusive; · = no result given; & = joins results of further samples; [ ] = another dose, or the depositor's remark. Potency means the concentration at half of the fitted maximal effect. A portion of the library (hit frequency here may not be typical).

Each structure is followed by: Prx2 Sm inh	LT uptake inh
COc1cc(C(c2sc3nc(C)nn3c2O)N2CCN(c3ccccc3)CC2)cc(OC)c1OC (centres undefined)
→ >57	-0.3%
CCCCCc1ccc(CC(=O)O)cc1
→ >57	?
CC(C)C(C(=O)NCc1ccco1)N(C(=O)CNS(=O)(=O)c1ccccc1)C1CCCC1 (centres undefined)
→ >57	-8.4%
Cc1sc2nc3c(C(=O)N4CCN(c5ncccn5)CC4)cccn3c(=O)c2c1C
→ >57	2.4%
CCOC(=O)CNC(=O)C(Cc1ccccc1)NS(=O)(=O)c1ccc2c(c1)CCC(=O)N2 (centres undefined)
→ >57	11.7%
O=NN(CCCl)C(=O)NCCCl
→ >57	11.0%
CCOCCn1c(COc2ccccc2)nc2ccccc21
→ ·	-7.4%
CCCOc1ccc(N2C(=O)CC(N3CCOCC3)C2=O)cc1 (centres undefined)
→ ·	0.7%
Cc1ccc(C)n1NC(=O)c1cccs1
→ >57	10.8%
CCOC(=O)C1=C(C)NC(SCC(N)=O)=C(C#N)C1c1ccncc1 (centres undefined)
→ >57	·
COc1cc(C)c(C)cc1S(=O)(=O)N1CCN(Cc2ccccc2)CC1
→ ·	-12.6%
Cn1c2c(c(=O)n(C)c1=O)C(c1ccc(O)cc1)Nc1ccccc1O2 (centres undefined)
→ >57	4.7%
Cc1ccc(-n2c(Cn3cnc4ccccc43)nnc2SCC(=O)O)cc1
→ >57	-9.7%
O=C(CSc1nc2ccccc2[nH]1)NC(=O)NCc1ccco1
→ >57	5.6%
COc1ccc(CN(C2CCCC2)S(=O)(=O)c2ccc(-n3cnnn3)c(OC)c2)cc1OC
→ >57	?
CCOC(=O)C1CCN(C(=O)c2ccc(NC(=O)C3CCCO3)cc2)CC1 (centres undefined)
→ >57	1.1%
O=C1CC(c2ccc(S(=O)(=O)N3CCCCC3)cc2)CN1 (centres undefined)
→ >57	12.9%
CC1(C)CC(=O)C(C=NCCO)=C(O)C1
→ >57	-2.0%
CC(C)(Oc1ccc(Cl)cc1)C(=O)NCc1ccncc1
→ >57	-1.0%
NCCc1ccc(S(=O)(=O)F)cc1
→ >57	15.2%
CCOc1ccccc1NC(=O)c1cccc(NC(=O)c2ccco2)c1
→ >57	·
COCCCN(C(=O)Cn1ncc2c(=O)oc3ccc(C)cc3c21)C(C)c1ccncc1 (centres undefined)
→ >57	?
COc1ccc(C(CC(=O)O)NC(=O)c2cccs2)cc1 (centres undefined)
→ >57	?
CCOC(=O)c1cc(C(=O)c2cc(F)ccc2O)coc1=N
→ >57	-0.3%
Cc1ccnc(NS(=O)(=O)c2cccs2)c1
→ ·	-7.6%
CCOC(=O)Cn1c(=O)oc2cc(S(=O)(=O)NCCCc3ccccc3)ccc21
→ >57	?
Cc1nn(Cc2ccc(Cl)c(Cl)c2)c(C)c1NC(=O)c1cc(C2CC2)on1
→ >57	-30.6%
CCN(CC(=O)Nc1ccc2c(c1)OCCO2)c1ccc(S(=O)(=O)N2CCOCC2)cn1
→ >57	-4.8%
CCN(CC)c1ccc(CC2C(=O)N(C)C(=O)N(C)C2=O)cc1
→ ·	-18.5%
CN1CCN(C2=NC3(CCCC3)C(C#N)C(=O)N2)CC1 (centres undefined)
→ >57	-0.2%
Clc1cccc2sc(N3CCCC3)nc12
→ >57	?
CCOC(=O)C1=C(C)NC(C)=C(C(=O)OCC)C1C(=O)OCC(=O)N1CCc2ccccc2C1
→ >57	?
O=C(Cn1[nH]c(=O)c2ccccc2c1=O)OCC(=O)N1CCCc2ccccc21
→ >57	2.7%
CSC1=NCCN1C(=O)c1ccc(Br)o1
→ >57	-13.5%
CCC(=O)Nc1cc(C(C)C)c(O)cc1C
→ >57	4.9%
COc1ccccc1CNC(=O)COC(=O)c1cnccn1
→ >57	-1.4%
Nc1cc(CN2C(=O)c3ccccc3C2=O)cc(Cl)c1O
→ >57	-3.2%
O=C(Nc1c(C(=O)O)[nH]c2ccccc12)NC1CCCCC1
→ >57	?
COc1ccc(OC)c(C(c2nnnn2CCc2ccccc2)N2CCN(c3ccccc3)CC2)c1 (centres undefined)
→ >57	?
CC(C)(C)c1[nH]nc2c1C(c1ccc(OC(=O)c3ccco3)cc1)C(C#N)=C(N)O2 (centres undefined)
→ >57	-1.6%
Cc1ccccc1OCC(=O)Nc1ccc(N2CCN(C(=O)C(C)C)CC2)c(Cl)c1
→ >57	12.6µM*
CCCCN(C(=O)c1cc(OC)c(OC)c(OC)c1)C1=CC2CCC(C1)N2C (centres undefined)
→ >57	15.2%
O=C(CCS(=O)(=O)c1cccc2nonc12)NC1CCCCCC1
→ >57	-12.9%
Cn1c(C(=O)OCC(=O)NCc2ccco2)cc2sccc21
→ >57	-2.4%
CCCCn1c(SCC(=O)N2CCCc3ccccc32)nc2c1c(=O)n(C)c(=O)n2C
→ >57	-6.3%
COc1ccc(CN2CCNCC2)c(OC)c1OC
→ >57	?
CC(C)C(NS(=O)(=O)c1ccc2c3c(cccc13)C(=O)N2)C(=O)O (centres undefined)
→ >57	6.3%
N#Cc1ccc(CN2CC[C@@]3(CCCN(C(=O)c4cccc(F)c4)C3)C2)cc1
→ >57	?
COc1cccc(-c2cncnc2NCCc2c[nH]c3ccc(OC)cc23)c1
→ >57	?
Cc1ccc(S(=O)(=O)N(CC(=O)N2CCOCC2)C2CCCCC2)cc1
→ >57	0.1%
CCCCc1c(C)nn(-c2nnc3c4ccccc4n(CC)c3n2)c1C
→ >57	-17.5%
Fc1ccc(C2=Nn3c(nnc3-c3n[nH]c4c3CCC4)SC2)cc1
→ >57	2.1%
CS(=O)(=O)N(CC(=O)O)c1cccc(Cl)c1
→ >57	-3.9%
Cc1cc(C)c(S(=O)(=O)N(C)CC(N)=O)c(C)c1
→ >57	7.3%
O=C(c1cccs1)N1CCN(Cc2cccnc2)CC1
→ >57	4.9%
O=C(Nc1ccc(Cl)cn1)c1cccnc1
→ ·	11.7%
CCCCOc1ccc(OCCCN2CCOCC2)cc1
→ >57	-2.9%[3.58 µM]
CC1(C)Nc2ccccc2N(CCC(=O)N2CCOCC2)C1=O
→ >57	-3.2%
Cc1c(C)c2c(c(C)c1O)CC[C@@](C)(C(=O)O)O2
→ >57	-4.7%[3.58 µM]
CCOC(=O)C1C(=O)CC(C)(O)C(C(=O)OCC)C1c1ccc(Br)o1 (centres undefined)
→ >57	-0.2%

Additional results:
Each structure is followed by: Prx2 Sm inh	LT uptake inh
COc1ccc(CN2CCN(S(=O)(=O)c3ccc(F)cc3)CC2)cc1OC
→ >57	6.0%
CCCCNC(=O)C(c1ccc(OCC(=O)OC)c(C(=O)OC)c1)N(CCc1ccccn1)C(=O)CCCCCN1C(=O)NC(c2ccc(-c3ccccc3)cc2)C(C(=O)OCc2ccccc2)=C1C (centres undefined)
→ ·	-16.6%
Cn1cc(SCC(=O)NCc2ccc3c(c2)OCO3)c2ccccc21
→ >57	17.1%
O=C(c1cccs1)N1CCN(S(=O)(=O)N2CCOCC2)CC1
→ >57	-0.2%
O=C(Cn1cnc2c(cnn2-c2ccc(F)cc2)c1=O)NCc1ccco1
→ >57	-10.6%
Cc1ccc(-c2csc(NC(=O)c3ccno3)n2)cc1
→ >57	12.9%
C[Si](C)(c1ccc(C(=O)O)cc1)c1ccc(C(=O)O)cc1
→ >57	1.7%[8 µM]
CCCCCCn1c(CN2CCN(C(=O)c3ccco3)CC2)nc2c1c(=O)n(C)c(=O)n2C
→ >57	4.6%
Cc1nnc(SCC(N)=O)n1CC1CCCO1 (centres undefined)
→ >57	-14.0%
O=C(CCCN1C(=O)c2ccccc2C1=O)Nc1ccccn1
→ >57	6.3%
CC(=O)c1cccc(NC(=O)CN(c2cccc(F)c2)S(C)(=O)=O)c1
→ >57	-4.0%
CCCCOc1ccc(CN2CCN(CCO)CC2)cc1
→ >57	-6.6%
Cc1noc(NS(=O)(=O)c2ccc(N)cc2)c1C
→ >57&>57&>11.4	5.1%
CC(C)(C)NC(=O)NC(=O)COC(=O)CNC(=O)c1cccc(F)c1
→ >57	5.4%
N#Cc1cnn(CC2CCCCC2)c1N
→ >57	-2.0%
CN(C)c1oc(-c2ccccc2F)nc1C#N
→ >57	-3.2%
COC(=O)c1cc(-c2cccc(OC)c2)on1
→ >57	-0.5%
Cc1nn(C(=O)c2ccccc2)c2c1C(=O)CC(C)(C)C2
→ >57	-12.2%
CN(C)Cc1ccccc1-c1ccc2ncnc(N(C)Cc3ccco3)c2c1
→ >57	0.0%
CCC(c1nnc(SCC(=O)Nc2nnc(-c3ccccc3)o2)o1)N(C)C (centres undefined)
→ >57	0.0%
O=C(O)CCC(=O)NCC1OCCc2ccccc21 (centres undefined)
→ >57	4.6%
CC1CC2(CC(C)(C(=O)CSc3nc4ccccc4s3)OC2=O)C(=O)O1 (centres undefined)
→ >57	0.6%
CCc1n[nH]c2c1/C(=N\O)CC(c1ccccc1)C2 (centres undefined)
→ >57	7.1%
CC(C)Cn1c(NCCN(C)C)nc2c1c(=O)[nH]c(=O)n2C
→ >57	-1.9%
CC(C)Cc1nc2oc3c(=O)[nH]cnc3c2c2c1CCC2
→ ·	?
O=C(NCCCN1CCN(c2ccccc2F)CC1)C1CCN(S(=O)(=O)N2CCOCC2)CC1
→ >57	-6.4%
CCC12CC3CC(C1)CC(C(=O)Nc1nn[nH]n1)(C3)C2
→ >57	5.8%
COc1ccc(S(=O)(=O)Nc2cccc(NC(C)=O)c2)cc1
→ >57	·
COCCNC(=O)C1CC(=O)N(c2ccc(F)c(Cl)c2)C1 (centres undefined)
→ >57	0.4%
Clc1cc(Cl)c(-c2cc(Cl)c(Cl)cc2Cl)cc1Cl
→ ·	3.16µM*
CCOC(=O)C1CCN(S(=O)(=O)c2ccc(OCC)cc2)CC1
→ >57	-1.6%
CCCNC(=O)CS(=O)Cc1nc(-c2ccccc2C)oc1C (centres undefined)
→ >57	?
CCSc1nc2c(c(=O)[nH]1)C(c1cccnc1)C(C(=O)OC)=C(C)N2 (centres undefined)
→ >57	4.0%
O=C(Cn1cc2c(n1)CCCC2)NCc1ccccn1
→ >57	8.6%
CCCC(=O)Nc1cccc(NC(=O)c2ccc3c(c2)OCO3)c1
→ >57	4.5%
CCOCCCNc1nc2c([nH]1)c(=O)n(C)c(=O)n2C
→ >57	0.4%
O=C(Cn1cc(/C=N/O)c2ccccc21)N1CCOCC1
→ >57	-4.3%
O=C1c2cc([N+](=O)[O-])ccc2-c2ccc3c4ccc5c6c(ccc(c7ccc1c2c73)c64)C(=O)c1cc([N+](=O)[O-])ccc1-5
→ >57	-2.4%[8 µM]
CC(C)CCNC(=O)CCCOc1cc(=O)n(C)c2ccccc12
→ >57	10.8%
CCOC(=O)c1c(C)[nH]c(C(=O)COC(=O)CNC(=O)C2CCCCC2)c1C
→ >57	-2.6%
CCOC(=O)N1CCN(C(=O)C2CCCN(S(=O)(=O)c3cc(C)ccc3OC)C2)CC1 (centres undefined)
→ >57	?
CC1CCCCN1CCNC(=O)c1cc2c(-c3ccccc3F)nn(C)c2s1 (centres undefined)
→ >57	7.94µM*
CCOC(=O)c1c(O)[nH]c(=O)c(CC)c1C
→ >57	5.6%[8 µM]
CCC(C)(C(=O)NC1CCCCC1)N(C(=O)C1CCC(=O)N1)c1ccc(C)cc1 (centres undefined)
→ >57	6.3%
CCOC(=O)C1CCN(C(=O)CSCc2nc(-c3ccc(OCC)cc3)oc2C)CC1
→ >57	3.4%
CN1CCCC(OC(=O)c2cc(Br)ccc2Cl)C1 (centres undefined)
→ >57	-16.9%
COc1cccc(NC(=O)c2ccco2)c1
→ ·	?
O=C1OCCC1Sc1nnc(-c2cccs2)n1Cc1ccccc1 (centres undefined)
→ >57	?
O=C(COC(=O)c1ccc(Oc2ccccc2)cc1)Nc1nnc(-c2ccccc2)o1
→ >57	1.7%
CN1CC(=O)N(CC(=O)NCc2ccc(F)cc2)c2ccccc2C1=O
→ >57	1.7%
CCN(CCNC(=O)C1CC(=O)N(CCc2ccccc2)C1)c1ccccc1 (centres undefined)
→ >57	4.5%
CCOC(=O)c1sc(NC(=O)c2cc3c(C)nn(-c4ccccc4)c3s2)nc1C
→ >57	-10.2%
COc1ccccc1OCC(=O)Nc1ccc(O)cc1C(=O)O
→ >57	3.1%
CCOC(=O)/C(C#N)=C1/C=Nc2ccccc2N1
→ ·	-3.4%
CCOC(=O)C(NC(=O)CCC(=O)Nc1ccc(S(N)(=O)=O)cc1)C(O)c1ccccc1 (centres undefined)
→ ·	-10.8%
CC(C)n1c(SCc2ccc(Cl)cc2)nc2c1c(=O)[nH]c(=O)n2C
→ >57	2.7%
Cc1cc(S(=O)(=O)N2CCCC2)ccc1OCC(=O)N1CCOCC1
→ >57	1.5%
CCOc1ccc2noc3c2c1C(=O)c1ccccc1-3
→ ·	-0.1%
CCOCC(=O)Nc1nc2c(s1)C(=O)CC(C)(C)C2
→ >57	-3.0%

A draw from above in order of heavy-atom count, smallest number first:
Each structure is followed by: Prx2 Sm inh	LT uptake inh
CC(C)n1c(SCc2ccc(Cl)cc2)nc2c1c(=O)[nH]c(=O)n2C
→ >57	2.7%
CCN(CCNC(=O)C1CC(=O)N(CCc2ccccc2)C1)c1ccccc1 (centres undefined)
→ >57	4.5%
CCOC(=O)C(NC(=O)CCC(=O)Nc1ccc(S(N)(=O)=O)cc1)C(O)c1ccccc1 (centres undefined)
→ ·	-10.8%
